Compound activity from PubChem BioAssay.
Cruzain inh noDet: qHTS Assay for Promiscuous and Specific Inhibitors of Cruzain (without detergent) | purified cruzain, Z-FR-AMC fluorescence, no detergent | Potency, µM, for inactives: max response, negative = inhibition, most hits filed as inhibitors | 200,000 tested, 2.3% active | AID 1476, 2009;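 note: plate controls were enzyme without inhibitor for no effect and buffer without enzyme for full effect; nearly all actives have a fitted effect of over 40% in size; top concentration of the series not given in the record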
Target sequence (P25779 123-467 limits assumed): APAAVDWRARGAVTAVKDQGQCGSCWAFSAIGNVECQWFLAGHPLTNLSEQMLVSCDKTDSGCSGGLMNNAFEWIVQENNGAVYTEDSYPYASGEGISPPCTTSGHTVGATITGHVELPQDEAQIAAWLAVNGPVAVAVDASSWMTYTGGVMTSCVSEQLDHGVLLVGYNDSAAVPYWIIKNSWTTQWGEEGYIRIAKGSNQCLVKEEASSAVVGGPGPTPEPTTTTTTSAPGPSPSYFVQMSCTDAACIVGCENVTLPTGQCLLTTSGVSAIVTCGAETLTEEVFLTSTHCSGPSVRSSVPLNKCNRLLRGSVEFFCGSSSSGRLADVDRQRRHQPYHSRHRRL
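Detergent-free condition (0.00005% Triton X-100) in acetate buffer pH 5.5 with DTT. 1.5 nM enzyme and compound were pre-mixed 15 min, then 2 uM Z-FR-AMC substrate added; reaction progress from fluorescence change between first and third reads (60 s).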
Cruzain Triton: qHTS Assay for Promiscuous and Specific Inhibitors of Cruzain (with detergent); 200,000 tested, 0.43% active; Cruzipain (Trypanosoma cruzi), P25779; purified cruzain, Z-FR-AMC fluorescence, 0.01% Triton; Potency, µM, without a hit: max response, negative = inhibition, most hits filed as inhibitors;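 note: plate controls were neutral wells for no effect and buffer without enzyme for full effect; nearly all actives have a fitted effect of over 40% in size; top concentration of the series not given in the record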
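Compounds were screened in titration against cruzain (1.5 nM) with 0.01% Triton X-100 to counter colloidal aggregation. Activity was the AMC fluorescence increase over 60 s after adding 2 uM Z-FR-AMC at pH 5.5.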
LASV entry inh: qHTS for Inhibitors of binding or entry into cells for Lassa Virus; 300,000 tested, 1.2% active; Potency, µM (top dose mostly 37.9 µM), for the others: at the top dose activity change, negative = inhibition, actives largely listed as inhibitors; Lassa virus pseudotype entry inhibition, cell reporter; control for the full effect not named in the record; active means well fitted inhibition curve with a large enough effect; inconclusive means small, poorly fitted or top-dose-only effect, or effect the other way; inactive means flat fitted curve, though single readings scatter; tested in HEK293 cells; note: % is set by controls: 0 for no effect and ±100 for the full control effect; nearly all actives have a fitted effect of over 50% in size; luciferase read-out
MARV entry inh: qHTS for inhibitors of binding or entry into cells for Marburg Virus | Marburg virus pseudotyped entry inhibition, cell reporter; control for the full effect not named in the record; about a third of the inactives were read at about 46 µM | Potency, µM (series often up to 37.8 µM), for the others: at the highest dose activity change, negative = inhibition, hits mostly inhibitors | 300,000 tested, 1.8% active; active = well fitted inhibition curve with a large enough effect; inconclusive = small, poorly fitted or top-dose-only effect, or effect the other way; inactive = flat fitted curve, though single readings scatter; tested in HEK293 cells; about a fifth of its hits are not listed in these tables; note: % is set by controls: 0 for no effect and ±100 for the full control effect; luciferase read-out
SARS PLpro yeast: qHTS of Yeast-based Assay for SARS-CoV PLP. S. cerevisiae expressing SARS-CoV PLpro, growth rescue; control for the full effect not named in the record. Potency, µM (titrated, usually from 32.9 µM), inactives show at the top dose activity, positive = growth rescue. 330,000 tested, 0.19% active; active means well fitted rising curve with a large enough effect; inconclusive means small, poorly fitted or top-dose-only effect; inactive means no such curve, though single readings can be large or run the other way; note: 0% is about no effect; nearly all actives have a fitted effect of over 55% in size; growth read by luminescence after 48 h
NS1 function inh: qHTS Assay for Inhibitors of Influenza NS1 Protein Function; S. cerevisiae slowed by influenza A NS1, growth recovery by OD600; Potency, µM (doses to about 46.1 µM), for inactives: at the top dose activity, positive = more growth; 270,000 tested, 0.4% active; AID 2326, 2010; active means well fitted rising curve with a large enough effect; inconclusive means small, poorly fitted or top-dose-only effect; inactive means no such curve, though single readings can be large or run the other way; note: nearly all actives have a fitted effect of over 50% in size
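A cell-based growth assay was used: compounds that relieve NS1-induced slow growth of budding yeast raise OD600. Assay medium was yeast nitrogen base with ammonium sulphate and -URA supplement, pH 6.0, with 2% galactose.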
RE007 growth inh: qHTS Assay for Inhibitors of the HIV-1 protein Vpr; S. pombe RE007 Vpr strain, BacTiter-Glo ATP luminescence, 24 h; control for the full effect not named in the record; Potency, µM (top dose mostly 92.2 µM), for inactives: at the top dose activity change, negative = less growth; 360,000 tested, 0.21% active; active = well fitted falling curve with a large enough effect; inconclusive = small, poorly fitted or top-dose-only effect; inactive = no such curve, though single readings can be large or run the other way;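 note: % is set by controls: 0 for no effect and ±100 for the full control effect; nearly all actives have a fitted effect of over 50% in size; the assay follows cell death caused by Vpr and the record does not say whether a fall means rescue or toxicity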
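Fission yeast RE007 carrying one integrated HIV-1 vpr copy, seeded at OD 0.01 in PMG+AL medium with 23 nL pinned compound. Grown 24 h at 30 degrees; viability read by BacTiter-Glo luminescence after 5 min.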
StopGo reporter: High Throughput Screening for Foot and Mouth Disease Virus Antivirals | human cells with a luciferase reporter of 2A StopGo recoding; control for the full effect not named in the record | Potency, µM (series often up to 57.9 µM), without a hit: at the top dose signal change, negative = less light | 410,000 tested, 1.2% active | AID 1159524, 2015; active = well fitted falling curve with a large enough effect; inconclusive = small, poorly fitted or top-dose-only effect; inactive = no such curve, though single readings can be large or run the other way; tested in HEK293T cells; note: % is set by controls: 0 for no effect and ±100 for the full control effect; nearly all actives have a fitted effect of over 45% in size; luciferase light after 4 h
Starred values were filed as active, the others as inactive; ? = inconclusive; nt = not tested or not shown; & = joins results of further samples; [ ] = another dose, or the depositor's remark. Unless noted, calls come from the whole dose curve; as a rule, active = well fitted curve in the direction sought with a large enough effect; inconclusive = small, poorly fitted or top-dose-only effect, or another doubt; inactive = no such curve, though single readings can be large; an effect the other way counts as inactive or inconclusive. Potency is the fitted concentration of half-maximal effect.

smiles	Cruzain inh noDet	Cruzain Triton	LASV entry inh	MARV entry inh	SARS PLpro yeast	NS1 function inh	RE007 growth inh	StopGo reporter
Cc1cc(C)c([N+](=O)[O-])cc1-c1ccc(/C=N/NC(=O)c2nonc2N)o1	-0.1%	-2.8%	4.5%	-9.2%	6.5%	1.4%	-3.8%	0.0%
C=CCSc1nnc(Cn2c(=O)sc3ccccc32)n1C	-8.6%	-1.7%	nt	nt	-0.4%	3.6%	0.1%	-23.9%
CC1(c2ccccc2)NC(=O)N(CC(=O)N(CC(=O)Nc2ccccc2C(F)(F)F)Cc2ccco2)C1=O (configuration not stated)	nt	nt	-2.9%	-6.1%	-0.6%	nt	-5.7%	0.2%
O=C(NCc1ccccc1)c1csc2c1CCCCC2	10.6%	-1.8%	-1.6%	?	12.5%	-11.1%	-22.9%	2.6%
CS(=O)(=O)c1ccc(Cl)c(NC(=O)COC(=O)CCN=C2NS(=O)(=O)c3ccccc32)c1	nt	nt	-5.6%	23.4%	1.5%	nt	-20.8%	-12.3%
CC(OC(=O)c1ccc(Cl)nc1)C(=O)NC(C)(C)C (configuration not stated)	nt	nt	2.8%	18.0%[46.1 µM]	0.9%	nt	5.3%	-15.1%
O=C(Nc1cc(S(=O)(=O)N2CCOCC2)ccc1N1CCOCC1)c1c(F)cccc1Cl	nt	nt	-7.5%	3.3%	1.9%	nt	-0.1%	7.1%
CCOC(=O)N1CCN(C(=O)c2ccc(N3C(=O)c4ccccc4C3=O)cc2)CC1	-2.1%	0.1%	3.0%	?	7.6%	-6.3%	-2.3%	0.0%
Cc1ccc(-c2nc3c(C)cccn3c2Nc2ccccc2C)s1	-9.8%	-9.2%	20.9%[46.1 µM]	-22.0%[46.1 µM]	nt	nt	nt	-13.2%
CCCCn1c(N)c(N(CCOC)C(=O)c2cccc(S(=O)(=O)N(C)c3ccc(C)cc3)c2)c(=O)[nH]c1=O	nt	nt	-2.2%[46.1 µM]	-15.7%	nt	nt	15.4%	-0.7%
Cc1ccc(Cl)cc1Nc1nn2c(=O)c3ccc(C(=O)NC(C)c4ccccc4)cc3nc2s1 (configuration not stated)	-20.3%	-1.6%	-22.1%[46.1 µM]	nt	nt	nt	nt	-20.1%
CC(C)CC(NC(N)=O)C(=O)OCC(=O)Nc1ccc(SC(F)F)cc1 (configuration not stated)	nt	nt	9.9%	-1.2%	2.2%	nt	-10.4%	-16.8%
C=CCn1c(SCC(=O)Nc2ccc(Br)cc2)nc(O)c(CC)c1=O	nt	nt	-7.1%[46.1 µM]	-3.8%[46.1 µM]	1.5%	7.8%	-4.7%	1.1%
CCN(CC)C(=O)C(=O)c1ccn(-c2c(C)csc2C(=O)OC)c1	nt	nt	nt	nt	1.0%	-1.1%	-4.8%	-15.6%
CC1CCCN(C2(O)C(=O)Nc3ccc(Cl)cc32)C1 (configuration not stated)	nt	nt	nt	nt	0.4%	-2.7%	40.2%	2.5%
Cc1ccc(NC(=O)C(=O)NCCc2sc(-c3ccc(Cl)cc3)nc2C)cc1C	-15.6%	2.6%	29.8%[46.1 µM]	nt	nt	nt	nt	16.0%
Cc1ccccc1-c1nnc(-c2ccc(Cl)cc2)o1	6.3%	0.6%	?	?	-1.7%	-13.8%	-7.7%	44.2%[activator]
COc1ccc(Cn2c(=O)[nH]c3cc(C(=O)N4CCN(c5ccc(C(C)=O)cc5)CC4)ccc3c2=O)cc1	nt	nt	0.5%[46.1 µM]	-0.4%[46.1 µM]	4.7%	12.6%	8.0%	?
CCC(C)NC(=O)c1cc(C)no1 (configuration not stated)	2.6%	-7.5%	-1.5%	-6.9%	3.4%	-0.1%	7.4%	-10.2%
CCc1nc(-c2ccc(-c3ccc(OC)cc3)nc2OC)no1	?	7.5%	?	?	-6.8%	-7.9%	-26.2%	30.3%[activator]
Cc1cc(C)cc(OCC(=O)N(Cc2ccccc2)C2CCS(=O)(=O)C2)c1 (configuration not stated)	nt	nt	-20.3%	8.4%[46.1 µM]	2.1%	-9.3%	-13.8%	-14.5%
COc1ccc(C(C)=O)cc1COc1ccc(Cl)cc1Cl	nt	nt	2.6%	?	-0.8%	-6.5%	-11.6%	-13.8%
COc1ccc(-c2ccc(SCC(=O)NC3CCCC3)nn2)cc1OC	nt	nt	?	3.6%	6.3%	10.6%	4.5%	9.7%
COc1ccc(N2C(=O)/C(=C/c3ccc(OC)c(OC)c3)C(=O)NC2=S)cc1	nt	nt	nt	nt	-7.6%	?	20.1%	-16.1%
Cc1cccc(CC2CC(=O)N(c3ccc([N+](=O)[O-])cc3)C2=O)c1 (configuration not stated)	nt	nt	nt	nt	-3.9%	-4.8%	2.0%	-10.0%
CCOC(=O)N1CCC(Nc2c(NCCCN(CC)c3cccc(C)c3)c(=O)c2=O)CC1	1.4%	5.8%	nt	nt	-1.1%	-11.2%	1.2%	13.8%
COc1ccc(CC(=O)OCC(=O)c2ccc[nH]2)cc1	nt	nt	0.4%	?	2.0%	nt	16.4%	35.6%[activator]
CCCCOc1cccc(/C=N/NC(=O)c2csc(C)c2C)c1	-1.8%	-6.2%	-13.7%	?	-4.8%	-7.9%	19.9%	-22.6%
O=C(O)CCCCCCNC(=O)c1cncc(O)c1	nt	nt	17.7%	-8.0%[46.1 µM]	0.3%	4.1%	21.8%	-1.1%
CCOc1ccccc1NC(=O)Nc1nnc(N2CCCC(C)C2)s1 (configuration not stated)	-0.8%	-4.5%	16.2%[46.1 µM]	5.8%[46.1 µM]	nt	nt	nt	-13.5%
Cc1ccc(C2N3CC4([N+](=O)[O-])CN2CC([N+](=O)[O-])(C3)C4(C)C)cc1 (configuration not stated)	?	1.0%	17.1%	-22.0%	-0.9%	-9.3%	11.2%	-1.4%
COc1cc(Cl)ccc1NC(=S)N(CCN(C)C)C(C)c1ccncc1 (configuration not stated)	nt	nt	nt	nt	0.5%	-6.1%	-18.8%	21.3%
O=c1cc(O)c(-c2ccccc2)c(Cl)[nH]1	5.2%	2.6%	-1.1%	21.8%[46.1 µM]	7.9%	17.0%	-1.3%	1.9%
COC(=O)CSc1nc(-c2ccccc2)cc(-c2ccco2)c1C#N	?	?	-4.2%	?	-0.3%	4.0%	-4.0%	-4.8%
CCSC(=O)N=Nc1ccc(O)cc1	nt	nt	-20.3%	-8.9%	nt	nt	15.8µM*	-11.0%
O=C(Nc1cc(F)ccc1F)C1CCN(C(=O)c2cnn(-c3ccccc3)c2-n2cccc2)CC1	?	-9.9%	22.3%[46.1 µM]	16.1%[46.1 µM]	nt	nt	nt	-28.0%
CCCOc1ccc(NC(=O)CC2C(=O)N(C)C(=S)N2Cc2ccc3c(c2)OCO3)cc1 (configuration not stated)	9.0%	-4.6%	-18.9%	?	6.1%	-2.6%	26.4%	-25.2%
O=C(O)CNC(=O)C(CS)Cc1ccccc1 (configuration not stated)	14.2%	5.8%	?	4.0%&4.0%&4.0%&4.0%&4.0%&-32.0%&4.0%	nt	-12.1%	-6.4%[18.4 µM]	-17.5%
O=S1(=O)C=CC(c2ccccc2)C1 (configuration not stated)	nt	nt	-13.9%	-15.3%[46.1 µM]	1.1%	1.6%	4.0%	2.3%
CCN1CCc2c(OCc3ccccc3)cccc2C1=O	nt	nt	6.4%	2.7%[46.1 µM]	-3.6%	nt	16.0%	-3.7%
CCn1cc(C(=O)N[C@@H](CCSC)C(=O)NC(C)(C)CO)c(=O)c2cc3c(cc21)OCO3	nt	nt	nt	nt	2.1%	1.1%	13.5%	2.4%
CCC(C(=O)NCCc1c[nH]c2cc(OC)ccc12)c1ccccc1 (configuration not stated)	nt	nt	8.4%[46.1 µM]	?	-0.3%	-6.7%	-13.3%	-10.6%
O=C(O)c1cn(C2CCCCC2)c2ccccc2c1=O	nt	nt	3.1%	22.4%	0.4%	-2.5%	-6.7%	-7.8%
CCCOc1ccccc1NC(=O)c1ccc(N)cc1	4.6%	-0.6%	-8.9%	-3.6%	-2.4%	-15.6%	-15.2%	8.3%
COC(=O)[C@]12OC[C@]34C([C@@H](O)[C@@H]1O)[C@]1(C)CC(=O)C(O)=C(C)[C@@H]1C[C@H]3OC(=O)[C@H](O)[C@@H]24 (some centres not stated)	nt	nt	nt	nt	-4.2%	4.1%	-13.3%	?
COc1cccc(C(=O)NNC(=O)CCC(=O)O)c1	nt	nt	nt	nt	0.5%	-67.3%	-11.5%	-5.2%
Cc1nnc(SCc2cc(=O)c3ccccc3[nH]2)s1	-16.0%	-1.9%	26.5%[46.1 µM]	nt	nt	nt	nt	-13.6%
O=S(=O)(c1ccc(Cl)cc1)N1CN2CCN(C2)C1	-3.5%	5.9%	6.9%	17.3%	6.0%	-5.9%	-1.8%	-4.3%
